# Screening data from PubChem.
# CtBP-E1A blk: inhibitors of CtBP/E1A interaction. 340,000 tested, 0.49% active. activity change, % (test concentration not listed). AlphaScreen GST-E1A/His-CtBP binding, 1536-well; hits give low values; control for the full effect not named in the record; in the data active means activity change below about -65%; inconclusive means about -30% to -65%; inactive means above about -30%; note: % is set by controls: 0 for no effect and ±100 for the full control effect; compound concentration not given in the record
#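 Steps: dispense buffer (Tris pH 8.0, NaCl 300 mM, TCEP 1 mM, BSA, Tween 20); add 5X protein mix (GST-E1A, His-CtBP, 125 nM each); pin 23 nL compound; 2 h at 37 °C, dark; add 5X beads (50 ug/mL); 1 h; read.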
# TRPML1 agonist: activates the human TRPML1 channel; Q9GZU1; TRPML1-expressing cells, Ca2+ dye fluorescence, FDSS; host cell line not named in the record; reference of the full effect not given here; activation, % (concentration not given with the values); 410,000 tested, 0.12% active; AID 624414; in the data active = activation above about 50%; inconclusive = about 30% to 50%; inactive = below about 30%; note: 0% is about no effect; the text of the record puts the active cut at 80%
#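 Calcium fluorescence on an FDSS kinetic reader gave the read-out. Tet-induced TRPML1-DL cells were plated overnight, dye-loaded (Ca8 with quencher, 45-90 min, room temperature, dark), then read 110 s after compound addition, and again 110 s after 4uM final 54-4 (EC80).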
# D2 ag: agonists of human D2 dopamine receptor (beta-arrestin); P14416; DiscoveRx PathHunter D2 beta-arrestin, luminescence, 90 min; 100% = 57 uM dopamine signal; activation, % (test concentration not listed); 360,000 tested, 0.084% active; AID 624465; in the data active = activation above about 40%; inconclusive = about 15% to 40%; inactive = below about 15%; note: compound concentration not given in the record; the text of the record calls up to 30% inactive
#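 DiscoveRx PathHunter D2 beta-arrestin cells (2,100/well) attached overnight, then compound-stimulated 90 min at 37 C in HBSS/10 mM HEPES/0.1% Tween-20 buffer; beta-galactosidase complementation read by luminescence after 1 h at ambient temperature. Dopamine 57 uM final (EC100) as control.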
# TRPML1 blocker: human mucolipin-1 channel inhibition; TRPML1-inducible cells, Ca2+ dye fluorescence, FDSS; hits give low values; inhibition of EC80 agonist-evoked calcium signal; 390,000 tested, 0.02% active; Q9GZU1; activity change, negative = inhibition, % (concentration not given with the values); AID 624415; in the data active means activity change below about -50%; inconclusive means about -30% to -50%; inactive means above about -30%;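 note: stimulus is agonist 54-4 at its EC80 concentration; % is set by controls: 0 for no effect and ±100 for the full control effect; compound concentration not given in the record; the text of the record puts the active cut at -80%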
#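 Tet-induced TRPML1-DL cells loaded with Ca8 no-wash calcium dye were read kinetically on FDSS. Compound addition was followed by EC80 agonist 54-4 (4 uM final); inhibition was read over 110 s.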
# PINK1 expr mod: PINK1 expression modulation. Potency, µM (series often up to 76.6 µM), inactives show at the top dose activation (PINK1 increase), most hits filed as activators. PINK1 immunofluorescence, high-content cytometry, 24 h. 410,000 tested, 0.2% active; active = well fitted activation curve with a large enough effect; inconclusive = small, poorly fitted or top-dose-only effect; inactive = flat fitted curve, though single readings scatter; cell line not stated here;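 note: potency is the fitted concentration of half-maximal effect; % of control where 0% means no effect; nearly all actives have a fitted effect of over 65% in size; a mitochondrial uncoupler was the plate control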
#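 Decision-based qHTS: stable cells, 24 h exposure to five compound concentrations, CCCP as control. Fixed cells stained for PINK1 plus nuclear, mitochondrial and cell markers, cytometer read.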
# Six1-Eya2 blk: Six1/Eya2 interaction inhibition; Q15475+O00167; AlphaScreen GST-Six1/His-Eya2 binding, biochemical; hits give low values; control for the full effect not named in the record; activity change, % (test concentration not listed); 360,000 tested, 0.56% active; in the data active = activity change below about -65%; inconclusive = about -30% to -65%; inactive = above about -30%; note: % is set by controls: 0 for no effect and ±100 for the full control effect; compound concentration not given in the record
# Target sequence (O00167 whole entry, looked up): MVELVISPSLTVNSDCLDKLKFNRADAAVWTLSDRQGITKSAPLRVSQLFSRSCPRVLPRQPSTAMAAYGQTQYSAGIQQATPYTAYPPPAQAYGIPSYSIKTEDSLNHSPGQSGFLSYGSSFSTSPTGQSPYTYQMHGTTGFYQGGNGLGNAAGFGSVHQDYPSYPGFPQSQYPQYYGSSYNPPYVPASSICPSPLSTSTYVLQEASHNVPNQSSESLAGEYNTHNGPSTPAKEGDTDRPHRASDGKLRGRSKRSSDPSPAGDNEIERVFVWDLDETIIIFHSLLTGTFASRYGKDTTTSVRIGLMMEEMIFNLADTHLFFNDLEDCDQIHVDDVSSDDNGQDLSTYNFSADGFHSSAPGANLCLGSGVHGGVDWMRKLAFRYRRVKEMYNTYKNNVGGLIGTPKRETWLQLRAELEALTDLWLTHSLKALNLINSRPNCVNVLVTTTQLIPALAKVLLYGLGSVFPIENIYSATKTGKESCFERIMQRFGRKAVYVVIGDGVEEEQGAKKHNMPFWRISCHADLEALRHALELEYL
# Target sequence (Q15475 whole entry, looked up): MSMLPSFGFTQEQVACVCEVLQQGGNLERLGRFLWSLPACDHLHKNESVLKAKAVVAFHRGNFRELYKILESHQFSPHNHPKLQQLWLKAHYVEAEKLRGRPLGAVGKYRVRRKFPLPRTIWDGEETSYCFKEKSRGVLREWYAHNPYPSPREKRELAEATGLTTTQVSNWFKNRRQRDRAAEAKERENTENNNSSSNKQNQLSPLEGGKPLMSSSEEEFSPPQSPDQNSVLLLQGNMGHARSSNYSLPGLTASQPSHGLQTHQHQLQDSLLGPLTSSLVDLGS
#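 AlphaScreen with GST-Six1 and His-Eya2 (5X mix: 250 nM and 500 nM), glutathione donor and nickel acceptor beads; buffer 50 mM Tris pH 8.0, 300 mM NaCl, 1 mM TCEP; 1 h at 37 C in the dark.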
# Starred values were filed as active, the others as inactive; ? = inconclusive; nt = not tested or not shown; [ ] = another dose, or the depositor's remark.
SMILES,CtBP-E1A blk,TRPML1 agonist,D2 ag,TRPML1 blocker,PINK1 expr mod,Six1-Eya2 blk
CC1(C)CC(=O)C=C(Nc2ccccn2)C1,10,0.5,0.1,3,-0.1%,-3
CS(=O)(=O)Cc1ccc(C(=O)NNC(=O)c2cc(-c3ccccc3)n[nH]2)cc1,-3,0.3,-2.1,5,0.1%,-3
O=S(=O)(c1ccc(-n2cnnn2)cc1)N1CCC(N2CCCCC2)CC1,-12,1.0,1.0,60,-1.1%,-1
COc1cccc(S(=O)(=O)Nc2ccc(C(=O)N3CCN(C(=O)c4ccco4)CC3)cc2)c1,-4,1.4,1.3,5,2.4%[38.3 µM],-2
COc1ccc(/C=C/C(=O)Nc2nc3n(n2)C(c2ccccc2)C=C(c2ccccc2)N3)cc1 (configuration not stated),nt,0.7,nt,7,0.2%,nt
COc1ccc(CNC(=O)Nc2cccc3ccccc23)cc1,0,0.0,-2.4,43,0.3%,0
O=C(Cc1cccc([N+](=O)[O-])c1)Nc1cccc(C(=O)N2CCCCC2)c1,1,0.5,1.2,-16,3.6%,-1
Cc1occc1C(=O)NNC(=O)C1CC1,-2,0.1,-7.2,42,1.8%,7
CCc1ccc(NCc2cc3ccc(OC)cc3n(CC(=O)Nc3ccc(F)cc3F)c2=O)cc1,nt,2.6,nt,8,?,nt
CCOC(=O)c1sc2nc(N3CCOCC3)c3c(c2c1N)CC(C(C)C)OC3 (configuration not stated),0,-0.2,-4.3,-9,7.3%,4
O=C(Nc1ccccc1Cl)c1ccc2ccccc2c1,-5,2.0,-4.6,-16,0.1%,12
O=C(COc1ccccc1)N1CCN=C1SCc1ccc(F)cc1,11,0.9,-1.5,3,-2.2%,18
O=C(O)c1c(C(=O)O)c(-c2ccc(F)cc2)n2c1CCC2,0,1.5,3.0,27,1.9%,-3
Cc1ccc(NC(=O)c2ccccc2)s1,2,-0.4,-0.1,-6,-1.4%,-4
O=C(NCc1cccnc1)c1ccc(NC(=O)c2cccc([N+](=O)[O-])c2)cc1,0,-0.4,-4.1,7,1.2%,8
COC(=O)NCC(c1cccnc1)N1CCN(c2ccccc2F)CC1 (configuration not stated),5,0.0,-3.5,0,1.2%,7
O=C1CS/C(=C/C(=O)c2ccccc2)N1,-1,0.5,-0.4,24,-7.1%[38.3 µM],3
COC(=O)C(CC(C)C)NC(=O)c1ccc([N+](=O)[O-])cc1 (configuration not stated),5,0.8,-1.6,-13,-1.9%,5
CCCn1c(NC(=O)c2ccccc2)nc2ccccc21,17,3.4,-7.2,10,3.2%,17
CCOc1ccc(C(=O)N2CCN(Cc3ccccc3)CC2)cc1OCC,-7,0.4,-2.3,3,-1.1%,6

# The closing two records of the part above open the next one.
SMILES,CtBP-E1A blk,TRPML1 agonist,D2 ag,TRPML1 blocker,PINK1 expr mod,Six1-Eya2 blk
CCCn1c(NC(=O)c2ccccc2)nc2ccccc21,17,3.4,-7.2,10,3.2%,17
CCOc1ccc(C(=O)N2CCN(Cc3ccccc3)CC2)cc1OCC,-7,0.4,-2.3,3,-1.1%,6
N#C/C(=C\c1ccccc1[N+](=O)[O-])C(=O)NCc1ccccc1,3,5.6,1.7,2,9.2%,3
CCOc1ccc(C(=S)N2CCOCC2)cc1,-4,0.4,0.3,-20,-1.2%,10
CC(O)(c1cccc(F)c1)c1nc(-c2ccncc2)cs1 (configuration not stated),3,-0.9,7.9,nt,0.2%,5
CCCn1c(CCC(=O)Nc2ccccc2OC)nc2cccnc21,nt,0.4,nt,11,0.9%,nt
CCOC(=O)C1CCN(C(=O)C(CC)c2ccccc2)CC1 (configuration not stated),nt,1.0,-3.3,3,1.7%,4
O=C(CSc1nnc2ccccn12)NNC(=O)c1ccc(Cl)cc1,-20,0.2,2.6,21,-0.9%,-7
O=C(Nc1ccccn1)c1cc2cc([N+](=O)[O-])ccc2s1,nt,2.6,4.4,-11,1.9%,-4
Cc1ccc2c(c1)CCCN2C(=O)c1cc(C)on1,-2,0.2,-5.3,-5,0.4%,-4
COc1ccc(NC(=O)Nc2ccc(F)cc2)cn1,nt,2.1,-2.4,7,0.0%,3
O=c1cc(O)c2c(=O)[nH]c(=O)n(-c3ccccc3)c2[nH]1,-2,-0.2,-0.5,-10,-1.8%,-7
O=C(Nc1ccc2c(c1)Cc1ccccc1-2)c1cc2ccccc2o1,5,4.4,5.6,4,-1.3%,-1
CCC(Oc1ccccc1)C(=O)NCc1ccc(S(N)(=O)=O)cc1 (configuration not stated),3,1.3,-4.1,-10,-1.6%,0
CCOC(=O)CNC(=O)C(=O)c1c(O)[nH]c2ccccc12,3,0.4,-1.7,-7,-1.5%,8
Cc1[nH]c2ccccc2c1C(=O)C(=O)NCCc1ccc(S(N)(=O)=O)cc1,9,-0.3,2.4,-6,1.3%,8
O=[N+]([O-])c1ccc(-c2cn(-c3ccc(Cl)cc3)cn2)cc1,3,0.1,2.2,nt,18%,-8
O=C(NCc1ccco1)/C(=C/c1cccc([N+](=O)[O-])c1)NC(=O)c1ccco1,1,-1.5,-2.6,-13,2.4%,-16
COc1cc(C(=O)NCCNC(=O)c2ccc(C)nc2)cc(OC)c1OC,0,0.7,-2.5,-9,2.7%,-1
CCCCOC(=O)C1=C(C)NC(=O)NC1c1ccc(OC)cc1 (configuration not stated),6,-0.7,10,-2,-0.8%,7
Cc1nnc(N/N=C/c2ccc(-c3ccc(Br)cc3)o2)n1N,-6,-0.7,?,-8,5.6%,-25
O=C(NCC1CCCO1)c1cc(NS(=O)(=O)c2cccs2)cc(NS(=O)(=O)c2cccs2)c1 (configuration not stated),10,-0.5,-1.2,-6,4.9%,8
CN(C)c1ccc(CNC(=O)c2ccccc2NC(=O)c2nsc3ccccc23)cc1,nt,1.3,nt,-26,0.2%,nt
OCCSc1nc(N2CCOCC2)nc(N2CCOCC2)n1,-3,-1.3,-5.9,-1,1.2%,5
Cn1ncc(Br)c1C(=O)N1CCCC1,-2,0.7,6.2,46,1.1%,-2
COC(=O)c1c2c(nc3ccccc13)CCC2,0,-0.8,-3.1,-3,0.7%,14
COC(=O)c1nnn(-c2cccc(C)c2)c1N,nt,3.3,nt,15,1.7%,nt
Clc1ccc(-c2nnc(SCc3nc4ccccc4s3)o2)cc1,nt,0.1,6.9,-6,3.6%,13
O=C(NN1CCOCC1)c1ccco1,nt,-0.3,-2.5,-6,0.2%,18
CCCCn1c(-c2cccs2)nc2nc3ccccc3nc21,8,1.7,-4.1,1,-2.1%,6
COC(=O)C1C/C(=N\NS(=O)(=O)c2ccc(C)cc2)c2ccccc2C1 (configuration not stated),5,2.9,-5.3,-3,1.6%,5
CCc1nc2c(C#N)c(-c3ccc(Cl)cc3)ccn2n1,-1,-0.1,-1.3,3,-1.0%,-4
Cc1ccc(CNC(=O)c2sc3nc(C)cc(C)c3c2-n2cccc2)cc1,nt,1.2,nt,15,-0.4%,nt
CN(C)CCCn1c(=O)n(C2CCCCC2)c(=O)c2c3c(sc21)CCCCC3,-4,0.0,4.1,9,7.8%,2
CCOC(=O)Nc1ccc2c(C)cc(=O)oc2c1,-3,2.4,-1.3,15,-0.8%[38.3 µM],0
CCCC(=O)Nc1ccc(N2CCN(C(=O)c3cccs3)CC2)cc1,4,0.1,-5.2,10,-1.0%,-2
CCOc1ccc(NS(=O)(=O)c2ccc(C(=O)NCC3(N4CCCCC4)CCCCC3)cc2)cc1,12,4.7,-0.4,0,-0.3%,11
Cc1c(CCO)c(=O)[nH]n1C(=O)c1ccc(F)cc1,5,0.0,-2.2,5,0.7%,-1
Cc1cccc2cc(CN(CCCO)C(=O)Nc3cccc(Cl)c3)c(=O)[nH]c12,-5,1.8,-1.9,14,-1.5%,0
CC(=C/c1ccc(C(C)C)cc1)/C=N/NC(=O)Cn1nc(C)cc1C,10,2.6,1.3,7,2.3%,-5
O=C(Nc1nnc(Cc2ccccc2F)s1)c1ccccc1Cl,-11,2.3,1.0,0,-2.3%,5
O=C(CC1C[C@H](C(=O)N2CCOCC2)[C@@]2(CCC3CCCC3)c3[nH]c4ccccc4c3CCN2C1=O)NCCc1ccccn1 (some centres not stated),-12,3.6,-1.1,-9,2.7%,-9
Cc1ccc(NC(=O)Nc2nc(-c3ccc(C)s3)cs2)cc1,2,-0.6,2.7,-1,5.9%,-7
Cc1ccsc1C(=O)N1CCN(c2ncc(C(F)(F)F)cc2Cl)CC1,10,0.8,0.3,56,2.1%,3
CCCn1c(SC(C)C(=O)NC2CCCC2)n[nH]c1=O (configuration not stated),0,0.6,-1.8,7,-1.3%,-2
O=C(C1=C(O)C(=O)N(CCN2CCOCC2)C1c1ccccn1)c1cccs1 (configuration not stated),-2,0.8,2.2,-9,0.7%,2
c1ccc(COc2ccc(OCCCN3CCCC3)cc2)cc1,-6,-1.3,-5.5,-16,-0.9%,-7
CCn1c(=O)c2sccc2n2c(CCCC(=O)N3CCN(c4ccc(F)cc4)CC3)nnc12,nt,0.5,nt,-9,-0.2%,nt
COc1cc(OC)c(OC)cc1/C=C1/Cc2ccccc2C1=O,nt,14,-1.0,-21,1.1%,16
CNc1nc(Cl)c(SC)c(NCc2ccc(F)cc2)n1,13,3.0,12,10,0.2%,7
O=C1N=C(N2CCOCC2)CS1,6,0.0,-2.4,27,nt,4
Cc1cc(NS(=O)(=O)c2ccc(NC(=O)N[C@H](C(=O)O)C(C)C)cc2)no1,-2,-0.4,-3.0,11,2.6%,4
CCOc1ccc(NC(=O)CCC(=O)c2ccc(Br)cc2)cc1,-1,0.0,-1.0,-11,-1.4%,1
CC(=O)c1cccc(N(CC(=O)Nc2ccccc2C(=O)N2CCCC2)S(C)(=O)=O)c1,1,-0.4,1.1,3,0.8%,3
Cc1ccc(S(=O)(=O)/N=C(/c2ccccc2)N2CCOCC2)cc1,8,-0.5,-2.4,-11,0.2%,-1
CCCCCC(=O)Nc1cccc(C2=NOC3(C2)C[C@@H](C(N)=O)N(C(=O)Cc2ccc([N+](=O)[O-])cc2)C3)c1 (some centres not stated),-1,-0.8,0.6,-5,-0.3%,-5

# A few values from the entries so far.
# For TRPML1 blocker, Cc1ccsc1C(=O)N1CCN(c2ncc(C(F)(F)F)cc2Cl)CC1 reads 56
# For D2 ag, O=C(C1=C(O)C(=O)N(CCN2CCOCC2)C1c1ccccn1)c1cccs1 (configuration not stated) reads 2.2
# For D2 ag, COc1cc(OC)c(OC)cc1/C=C1/Cc2ccccc2C1=O reads -1.0
# For Six1-Eya2 blk, CC(=O)c1cccc(N(CC(=O)Nc2ccccc2C(=O)N2CCCC2)S(C)(=O)=O)c1 reads 3

# Fetched by structure from the list above (4):
SMILES,CtBP-E1A blk,TRPML1 agonist,D2 ag,TRPML1 blocker,PINK1 expr mod,Six1-Eya2 blk
Cc1ccc(NC(=O)Nc2nc(-c3ccc(C)s3)cs2)cc1,2,-0.6,2.7,-1,5.9%,-7
O=C(C1=C(O)C(=O)N(CCN2CCOCC2)C1c1ccccn1)c1cccs1 (configuration not stated),-2,0.8,2.2,-9,0.7%,2
CCOc1ccc(NC(=O)CCC(=O)c2ccc(Br)cc2)cc1,-1,0.0,-1.0,-11,-1.4%,1
CC(=O)c1cccc(N(CC(=O)Nc2ccccc2C(=O)N2CCCC2)S(C)(=O)=O)c1,1,-0.4,1.1,3,0.8%,3
